hNpr1 antagonist: blocks ANP-stimulated signaling of human Npr1 receptor; Potency, µM (doses to about 46.3 µM), for inactives: at the top dose activity change, negative = inhibition, most hits filed as inhibitors; 1.6% of 76,000 active; HEK293 hNpr1 GloSensor cGMP, ANP-stimulated luminescence; P16066; active = well fitted inhibition curve with a large enough effect; inconclusive = small, poorly fitted or top-dose-only effect; inactive = no such curve, though single readings can be large or run the other way;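 note: nearly all actives have a fitted effect of over 60% in size; nearly all hits also lower the signal before the agonist is added; a reference antagonist and vehicle were the controls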
Target sequence (P16066 whole entry, looked up): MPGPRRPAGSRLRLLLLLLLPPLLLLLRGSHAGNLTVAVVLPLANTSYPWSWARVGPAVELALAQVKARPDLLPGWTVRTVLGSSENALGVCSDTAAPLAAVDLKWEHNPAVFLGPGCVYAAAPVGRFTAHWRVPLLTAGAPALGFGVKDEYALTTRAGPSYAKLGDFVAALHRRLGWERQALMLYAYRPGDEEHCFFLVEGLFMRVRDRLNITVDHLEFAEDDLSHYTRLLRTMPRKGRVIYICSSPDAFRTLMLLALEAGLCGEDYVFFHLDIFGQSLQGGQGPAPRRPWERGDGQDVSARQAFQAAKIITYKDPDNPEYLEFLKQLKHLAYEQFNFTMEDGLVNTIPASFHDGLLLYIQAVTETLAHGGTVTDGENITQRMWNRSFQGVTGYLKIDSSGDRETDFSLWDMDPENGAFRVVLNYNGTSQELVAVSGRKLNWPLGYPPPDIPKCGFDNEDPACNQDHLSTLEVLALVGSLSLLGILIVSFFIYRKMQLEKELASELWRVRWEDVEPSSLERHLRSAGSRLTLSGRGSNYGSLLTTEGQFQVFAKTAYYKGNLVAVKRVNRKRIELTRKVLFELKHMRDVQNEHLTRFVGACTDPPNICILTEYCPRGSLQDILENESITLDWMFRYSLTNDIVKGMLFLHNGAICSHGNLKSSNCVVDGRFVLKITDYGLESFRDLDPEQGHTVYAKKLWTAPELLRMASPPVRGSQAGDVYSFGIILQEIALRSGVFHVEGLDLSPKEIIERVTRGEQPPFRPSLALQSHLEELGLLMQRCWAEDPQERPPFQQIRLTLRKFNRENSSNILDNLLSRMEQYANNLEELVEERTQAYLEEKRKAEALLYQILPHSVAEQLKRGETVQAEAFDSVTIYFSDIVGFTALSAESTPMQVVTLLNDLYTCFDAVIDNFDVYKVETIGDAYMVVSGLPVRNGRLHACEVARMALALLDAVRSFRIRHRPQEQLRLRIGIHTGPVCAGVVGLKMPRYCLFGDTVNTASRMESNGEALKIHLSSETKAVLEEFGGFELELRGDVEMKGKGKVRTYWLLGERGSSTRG
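Compound pre-incubated 30 min at room temperature on GloSensor-loaded HEK293 cells stably carrying hNpr1 and the pGS-40F cGMP biosensor. Stimulation uses hNppA at 0.1 nM final; luminescence is taken at baseline and 20 min post-agonist.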
Numbers without * were called inactive; ? = inconclusive; & = joins results of further samples; [ ] = dose if it differs, or a comment. % is set by controls: 0 for no effect and ±100 for the full control effect; potency is the fitted concentration of half-maximal effect. Some of the compounds tested; count on the stated rates, not on these rows.

SMILES	hNpr1 antagonist
CC1=C(C(=O)OC(C)(C)C)C(c2ccccc2)N2C(CC(=O)N3CCCC3)=CSC2=N1 (stereo unspecified)	?
CCN1CCCN(C(=O)c2ccoc2)CC12CCOCC2	6.4%
COc1ccc(NC(=O)Cn2ccn3nc4c(c3c2=O)CC(C)CC4)cc1OC (stereo unspecified)	-2.4%
COc1ccc(Cl)cc1NC(=O)Cn1c(-c2ccccc2)nc(C)c(CCO)c1=O	-14.8%
COC(=O)c1ccc2nc(C[C@@H]3C[C@@H](C(C)C)[C@H](CNS(=O)(=O)c4ccccc4)C=C3C)[nH]c2c1	-5.6%
O=C(NC[C@H]1OC[C@@H](NC2CCOCC2)[C@@H]1O)c1ccccc1	3.6%[70.6 µM]
c1ccc2c(Cc3nnc([C@H]4CCN(CC5CC5)C4)o3)c[nH]c2c1	1.1%[70.6 µM]
CNC(=O)[C@@H](CC(C)C)N1CCC[C@H]1C(=O)NC1CCCCC1	-0.1%[70.6 µM]
CN(Cc1cccnc1)c1nc2c(c(=O)[nH]1)CCN(Cc1ccc(F)cc1)CC2	-1.4%
O=C(COc1ccc(-c2nnc3n2CCCC3)cc1)Nc1ccc(Cl)cc1	1.2%
O=C(Nc1ccc2nnc(-c3ccc(C(=O)N4CCSCC4)cc3)n2c1)C1CCC1	-7.8%
COCC(=O)N[C@H]1CC[C@]2(C)CCC([C@H](C)C(=O)NCc3ccc(OC)c(OC)c3)[C@H](O)[C@H]2[C@@H]1C (stereo partly specified)	5.5%
O=C(C[C@@H]1C[C@H]2O[C@H](CNC3CCCCC3)[C@@H](O)[C@H]2O1)N1CCC(F)(F)C1	7.4%[70.6 µM]
CCNC(=O)N1CCC[C@@H](O)[C@H](NC(=O)c2ccc(OCCN3CCCC3)cc2)C1	2.5%[70.6 µM]
CCc1nc2c(c(-c3ccc(Cl)cc3)n1)CN(C(=O)c1ccc(F)cc1)CC2	1.1%
CCOC(=O)c1cn(C2CN(C(=O)Cc3cccc(Cl)c3)C2)nn1	3.9%
CN(Cc1ccccc1)C(=O)Cc1cccn1-c1ccc(F)cc1	-20.3%
O=C(C1CC1)N1CC(F)(F)C[C@H]1c1nc(-c2cccnc2)no1	1.5%
COc1ccc(NC(=O)CN2C(=O)NC3(CCCCC3)C2=O)cc1OC	2.2%
COc1ccc(CN(C)C2CCCN(CCc3ccccc3)C2)cc1F (stereo unspecified)	7.0%
COc1ccc(-c2nn(-c3ccccc3C)cc2CN2CCCC2c2nonc2C)cc1F (stereo unspecified)	2.0%
O=C(c1n[nH]c2ccccc12)N1CC(Oc2ccccc2-c2nc(C3CC3)no2)C1	-4.0%
Cc1nc2cccnc2n1CC1CCCN(S(=O)(=O)c2ccccc2)C1 (stereo unspecified)	1.6%
Cc1nc2c(s1)C[C@@H]1[C@](C)(CO)[C@H](O)CC[C@@]1(C)[C@@H]2CC(=O)Nc1ccccc1	-2.7%[70.6 µM]
CCCNC(=O)N(C1CCOCC1)C1CCN(C(=O)c2ccsc2)CC1	5.0%
COCCOc1ccc2c(n1)CCN(C(=O)COc1ccc(F)cc1)C2	0.0%
C[C@@H]1CNC[C@H]1c1nc(-c2ccncc2)no1	-1.5%
COc1ncc(-c2cc(C(=O)NCc3c(C)cc(C)[nH]c3=O)c3c(c2)N(C(C)C)CCO3)cn1	4.0%
COc1ccc(N2CC(c3noc(-c4cc(C)cc(C)c4)n3)CC2=O)cc1OC (stereo unspecified)	-4.1%
CCc1nnc(CN(CC)C(=O)c2ccc3nc(-c4ccccc4)cn3c2)o1	1.3%
COc1ccc(CC(=O)Nc2ccc([C@H]3OCC(=O)N(Cc4nccn4C)[C@@H]3CO)cc2)cc1	2.1%
CC(C)NC(=O)C[C@@H]1O[C@H](CNC[C@H]2O[C@@H](CC(=O)NC(C)C)[C@H](O)[C@@H]2O)[C@@H](O)[C@H]1O	-4.3%
CCCNc1cc(N2CCC(CCC(=O)N3CCN(c4ccc(F)cc4)CC3)CC2)ncn1	11.2µM*
Cc1ccc(CC(=O)N2CCc3cn(C)c4cccc(c34)C2)cc1	3.2%
COc1ccc(C(=O)NC2CCN(c3cc(-c4ccccc4)[nH]n3)C2)cc1OC (stereo unspecified)	-2.7%
O=C1NCCC[C@@H]1NC(=O)[C@@H]1CN(C(=O)c2cccc(F)c2)CCN1C(=O)C1CCNCC1	-1.2%
CCc1nc(-c2c3n(c(=O)n(CC(=O)Nc4cc(F)ccc4F)c2=O)CCCC3)no1	-0.6%
CCn1nccc1C(=O)N1CCC2(CC1)CN(C(C)=O)CC2COC (stereo unspecified)	6.3%
Cc1ccccc1NC(=O)Cn1nc2n(c1=O)CCCC2	4.2%
Cc1ccc(N2CCN(C(=O)c3noc(-c4ccc[nH]c4=O)n3)CC2)cc1	4.4%

Given as labelled records: part of the list above.
COc1ccc(CC(=O)Nc2ccc([C@H]3OCC(=O)N(Cc4nccn4C)[C@@H]3CO)cc2)cc1
  hNpr1 antagonist: 2.1%
CCn1nccc1C(=O)N1CCC2(CC1)CN(C(C)=O)CC2COC (stereo unspecified)
  hNpr1 antagonist: 6.3%
CCCNc1cc(N2CCC(CCC(=O)N3CCN(c4ccc(F)cc4)CC3)CC2)ncn1
  hNpr1 antagonist: 11.2µM*
Cc1ccc(CC(=O)N2CCc3cn(C)c4cccc(c34)C2)cc1
  hNpr1 antagonist: 3.2%

Remaining list, next part.
SMILES	hNpr1 antagonist
CN(C)C(=O)N1CCCCC(NC2CCN(c3ccc4c(c3)CCC4)CC2)C1 (stereo unspecified)	0.3%
Cc1nc(C)c(C(=O)N2CCC(CCOc3ccccc3)C2)s1 (stereo unspecified)	-27.0%
CC(C)Oc1cccc(-c2nc(C(=O)NCc3ccco3)cs2)c1	-22.4%
CC(=O)N1CCC(C(=O)N[C@H]2CCN3C(=O)N(c4ccc(C)cc4)C(=O)[C@@H]3C2)CC1	3.9%[70.6 µM]
CC(C)NC(=O)c1noc(-c2ccc[nH]c2=O)n1	3.6%
COCCC(=O)N1CCC(Oc2ccccc2-c2nc(C3CC3)no2)C1 (stereo unspecified)	-6.2%
Cn1nc(C(=O)N2CCC3(CC2)N=C(c2ccccc2)NO3)c2ccccc21	-3.6%
COC[C@H]1CCCN1[C@@H]1[C@H](O)[C@H](CO)O[C@@H]1CN(Cc1cccc(Cl)c1)Cc1cccc(Cl)c1	3.5%
O=C1CCC2(CNC(=O)c3cnccn3)CCCC=C2N1 (stereo unspecified)	3.1%
Cc1noc(C)c1-c1cc2cc(CN(C)C)oc2c(NCc2cccc(F)c2)n1	-2.1%[70.6 µM]
CC(=O)c1ccc(NC(=O)NC[C@@H]2C=C(C)[C@H](CC(=O)N(C)Cc3cccnc3)C[C@H]2C(C)C)cc1	-14.1%
CC(C)CN1C(=O)C(C)(C)[S+](=O)([O-])[C@H]2CN(Cc3cccc(C(=O)O)c3)C[C@@H]21	3.8%[70.6 µM]
COc1ccc(C(=O)NC2CCCN(CCc3ccccc3)C2)c(OC)n1 (stereo unspecified)	-4.9%
Cc1noc(C)c1S(=O)(=O)N1CCc2n[nH]c(=O)n2CC1	1.0%
O=C(NC1CCCN(c2cc(-c3ccc(F)cc3)[nH]n2)C1)c1cccc(Br)c1 (stereo unspecified)	-25.7%
O=C(O)CCC(=O)NC[C@H]1Cn2c(-c3ccc(Cl)cc3)cnc2CO1	0.9%[70.6 µM]
CC(C)n1nccc1S(=O)(=O)N[C@@H]1[C@@H](Cc2ccccc2)[C@H]2OCC[C@@H]12	?
Cn1cc(-c2cnc(Nc3ccc(N4CCOCC4)cc3)c3c2CCO3)cn1	-17.6%[70.6 µM]
CC(C)N1CCN(Cc2ccccc2-c2ccco2)CC1CCO (stereo unspecified)	-0.1%
Cc1ncc2n1C(=O)N(C1CCN(Cc3ccnn3C)CC1)C2	-6.5%&-5.7%[70.6 µM]
COc1ccc(NC(=O)c2cn3ccnc(-c4ccc(F)cc4)c3n2)cc1OC	-9.0%
C[C@H]1[C@@H]2[C@@H](O)C([C@H](C)C(=O)NC(C)(C)C)CC[C@@]2(C)CC[C@@H]1NS(C)(=O)=O (stereo partly specified)	2.2%[70.6 µM]
Cc1noc(C)c1-c1cc2cc(CNC3CC3)oc2c(NC2CCN(C)CC2)n1	-1.6%[70.6 µM]
Cc1noc(-c2ccn3c(CNC(=O)c4ccc(C)c(C)c4)nnc3c2)n1	-4.9%
CCc1ocnc1C(=O)N1CCC2(CC1)CC(c1ccccc1)CN(C)C2 (stereo unspecified)	-7.0%
CC(C)(CN1CCC(Cc2ccc(C(=O)O)cc2)C1)N1CCOCC1 (stereo unspecified)	-5.4%
CCC(=O)N1CCc2sc(C(=O)NCc3ccc(C)cc3)cc2C1	2.4%
COc1ccc(CNC(=O)CC[C@]23CC[C@](C)(O)C[C@H]2C(C)(C)C[C@@H]3NC2CCOCC2)cc1	3.7%
COc1ccc(-c2cc3nc4c(c(=O)n3[nH]2)CN(C(=O)c2ccc(C)nc2)CC4)cc1	1.4%
O=C(c1cnco1)N1CC(F)(F)C[C@H]1c1nc(-c2ccncc2)no1	-11.0%
Cc1ncsc1CN(Cc1ccccc1)C(=O)c1cn(CCC2CCCCC2)nn1	-5.0%
COCCn1cc(CN2CCN(c3cccc(OC)c3)CC2)ccc1=O	3.8%
Cc1ccc(C(=O)N(C)C2CCc3nn(CC4CC4)c(=O)n3CC2)c(=O)[nH]1 (stereo unspecified)	1.4%
COc1ccccc1OCCNC(=O)c1cn2ccnc(-c3ccc(C)cc3)c2n1	1.3%
O=C1NC2(CCN(Cc3ccc(C(F)(F)F)cc3)C2)OCc2ccccc21 (stereo unspecified)	?
F[C@@H]1CN(Cc2ccc(C(F)(F)F)cc2)C[C@@H]1OCc1nc2ccncc2[nH]1	?
O=C(c1cccc(-c2ncc[nH]2)c1)N1CCn2nc(Cc3ccccc3)cc2C1	1.9%
CN1CC(=O)N(C2CCCC2)Cc2c1ncnc2N1CCN(c2ncccn2)CC1	-14.1%
COCCNC(=O)c1ccc2c(c1)N(C)C(CC(=O)N(C)CC(C)C)CO2 (stereo unspecified)	0.4%
Cc1cn2nc(C(=O)NCc3cccnc3)cc2c(N2CCCC2)n1	3.3%
COC1CN(c2cccc(F)c2)C12CCN(C(=O)CCC1CCCC1)CC2 (stereo unspecified)	-1.5%
CNC(=O)[C@@H]1CN(C(=O)Cc2ccccc2Cl)C[C@H]1CO	-14.9%
CN(C)C[C@@H]1CN(c2ccncn2)C[C@H]1NC(=O)c1ccc2ncccc2c1	8.4%
COCC1CN(C2CCC2)CC12CCN(C(=O)c1ccccc1Cl)CC2 (stereo unspecified)	-1.6%
Cc1cc(Cl)c2oc(C(=O)N(Cc3c(C)nn(C)c3C)C3CC3)c(C)c2c1	7.94µM*
Cc1cnc(C(=O)N2CCOc3ccc(CCC(=O)NCC4CC4)cc3C2)cn1	5.1%
O=C(c1ccoc1)N1CCC(Cc2nc(-c3ccccc3)n[nH]2)C1 (stereo unspecified)	-6.0%
CC(C)CCC(=O)N[C@@H]1CN(C)C[C@H]1CN(C)C	1.8%
COc1ccc2nc(C[C@@H]3C[C@@H](C(C)C)[C@H](CN4C(=O)C(C)=C(C)C4=O)C=C3C)[nH]c2c1	-16.7%
COc1cccc(N2CCN(C(=O)[C@H]3CCC[C@H]3NC(=O)c3cnc(C)cn3)CC2)c1	5.3%
Next section
SMILES	hNpr1 antagonist
COc1ccc2[nH]c(C[C@@H]3C[C@@H](C(C)C)[C@H](CNCc4ccccc4O)C=C3C)nc2n1	?
O=C(Cc1cccc(F)c1)NCCC1CCN(C(=O)Nc2ccccc2F)CC1	0.1%
O=C1NCCCCCCN(Cc2ccc3c(c2)CCO3)[C@H]2CCC[C@@H]12	-11.1%
O=C1CCCCC(CNC(=O)c2nccc3ccccc23)N1 (stereo unspecified)	-9.0%
COCc1nc(-c2ccc(OC3CN(C(=O)c4cc(C)n(C)n4)C3)cc2)no1	-22.7%
O=C1N(Cc2ccc(F)cc2)CCCC12CCN(CC1CCCC1)C2 (stereo unspecified)	-1.9%
O=C(NC1CC1)C1CCCN1c1nc2ncccc2o1 (stereo unspecified)	1.4%[70.6 µM]
C[C@]1(CO)C2CC[C@@H](O)[C@@H](CC(=O)N3CCOCC3)[C@]2(C)CC[C@H]1OC(=O)Nc1ccccc1 (stereo partly specified)	3.1%
CC(=O)N1CC[C@H](c2nc3ncccc3[nH]2)C1	5.9%[70.6 µM]
CC(Oc1ccccc1)C(=O)N1CCC(n2cc(-c3nc(C4CC4)no3)nn2)C1 (stereo unspecified)	-9.8%
Cc1cc(Cl)ccc1S(=O)(=O)N1C[C@@H](C(N)=O)[C@H](C2CCN(C)CC2)C1	8.5%
COCCN1CC2(CCCN(C(=O)CNC(N)=O)C2)CCC1=O (stereo unspecified)	5.5%
Cc1nc2n(c1C(=O)Nc1cc(-c3ccc(F)cc3)[nH]n1)CCC(Nc1ccc(F)cc1)C2 (stereo unspecified)	-17.8%
O=C(NCc1nnc2cc(-c3nc(C4CC4)no3)ccn12)c1cccc(Cl)c1	?
O=C([C@@H]1C[C@H](F)CN1C(=O)Nc1ccccc1)N1CCCCC1	-6.8%
CC(Oc1ccccc1)C(=O)N1CCC2(CC1)NC(=O)N(c1ccccc1Cl)N2 (stereo unspecified)	5.1%
CC(C)C1c2nccn2CCCN1C(=O)c1cnco1 (stereo unspecified)	0.2%
COCc1nnc(NC(=O)C2c3ccccc3C(=O)N(CC(C)C)C23CCCCC3)s1 (stereo unspecified)	3.1%
COc1cncc(CN2C[C@H]3[C@H](C2)[S+](=O)([O-])C(C)(C)C(=O)N3CC(C)C)c1	0.5%[70.6 µM]

Screening results (PubChem BioAssay)
